Sa ugtP lethal: growth inhibition of S. aureus ugtP deletion strain; S. aureus RN4220 ugtP deletion, OD600 growth, 16 h; some inactives read as strong as hits; growth inhibition, % (test concentration not listed); hit rate 0.54% among 330,000; AID 1259309;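 active = z-score under -3 and OD600 up to 0.15 on both plates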;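 also: plate controls were untreated wells for no effect and antibiotic for full effect; wells of about 80 µL received 100 nL stock; the first replicate is given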
BJeLR lethal: kills HRASV12-expressing BJeLR cells. BJeLR (HRASV12) viability, CellTiter-Glo ATP luminescence, 48 h; reference of the scale not given here. inhibition, % (concentration not given with the values). hit rate 0.17% among 300,000. AID 1554;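 active = replicate mean above 50%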;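 also: 50 nL library stock added to about 25 µL; numbers are from one replicate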
RN4220 kill: kills Staphylococcus aureus RN4220. S. aureus RN4220 growth, OD600, 16 h. hit rate 0.33% among 330,000. inhibition, % (concentration not given with the values). AID 1259311;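 active = z-score of -3 or lower and OD600 up to 0.18 on both plates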;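 also: plate controls were untreated cells for no effect and reference antibiotic for full effect; stock transfer was 100 nL into about 80 µL; one replicate is shown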
Mtb hypoxia inh: inhibitors of hypoxia-regulated fluorescent reporter in Mycobacterium tuberculosis; M. tuberculosis hypoxia-regulated fluorescent reporter, fluorescence; fluorescence inhibition, % (test concentration not listed); hit rate 0.1% among 300,000;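 active = 35 to 45% if threefold the growth effect, above 45% if 1.5-fold the growth effect; inactive = the rest, general growth blockers included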;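 also: wells of about 50 µL received 100 nL stock; 0% = vehicle wells and 100% = reference inhibitor wells; whole bacteria with a GFP reporter of the hypoxia response; strong numbers were not always called active; many hits fall short of the cut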
PrP UTR inh: inhibition of PrP 5' UTR reporter expression; inhibition, % (test concentration not listed); cell-based PrP 5' UTR mRNA reporter, plate reader; hit rate 0.35% among 340,000;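 active = every replicate at 50% or more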;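 also: 0 = median of the neutral control wells; tested in H4 reporter cells; numbers are from one replicate; inactives centre near -14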
Bead autofluor: counter-screen for toxin protease inhibitors: compound fluorescence. compound autofluorescence counterscreen, microsphere flow cytometry; active compounds read high. fluorescence intensity (test concentration not listed). hit rate 3.1% among 360,000;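 active = at least 3 SD above the mean of all compounds, about 16000 in these data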;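 also: 100 nL of 1 mM stock went into each well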
Mtb hypoxia inh growth: second read-out of Mtb hypoxia inh, no call of its own (marks repeat the call); growth inhibition, %; measured here: M. tuberculosis growth (absorbance);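 0% = vehicle and 100% = reference antibiotic; read after six days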
Active calls of the source: *; / = not tested or not shown. Rows are unselected; overall some 3.9% were active at least once.

SMILES | Sa ugtP lethal | BJeLR lethal | RN4220 kill | Mtb hypoxia inh | Mtb hypoxia inh growth | PrP UTR inh | Bead autofluor
CCOC(=O)c1ccccc1NC(=O)C(C)Oc1ccccc1 (stereo not given) | 0.0 | -8.4 | 5.1 | / | / | -2.1 | 4551
COc1ccc(-c2cc(C(F)(F)F)nc(-n3cc(Cl)cn3)n2)cc1 | 3.1 | 2.2 | -2.3 | 7.4 | 4.5 | -2.7 | 6690
CC(C)c1c(O)nc(SCc2ccccc2)[nH]c1=O | -1.4 | -4.8 | 3.9 | / | / | -14.6 | 2632
Cc1ccc(S(=O)(=O)N(C)CC(=O)N2CCCCCC2)cc1 | 10.2 | -2.2 | 5.0 | 7.4 | 13.4 | -12.6 | 3807
COc1ccc(NC(=O)COC(=O)c2ccc(OC)c(S(=O)(=O)N3CCCC3)c2)cc1OC | 3.5 | / | 1.0 | -8.8 | -2.1 | -1.4 | 3268
CCc1ccccc1NS(=O)(=O)c1cccc2nsnc12 | 8.6 | 4.3 | 5.5 | 4.2 | -3.5 | -18.9 | 3036
COc1cccc(-c2nnc3n2N=C(c2cccc(Br)c2)CS3)c1 | -10.9 | 6.3 | 3.9 | -0.5 | 2.9 | -38.7 | 20881*
COc1ccc(C(=O)NCC(=O)NC2=NCCS2)cc1 | -6.4 | -8.1 | -5.5 | 3.8 | 2.4 | -8.1 | 6069
COc1cc(NC(=O)COC(C)=O)c(C)cc1[N+](=O)[O-] | 1.3 | 4.0 | -2.1 | -4.3 | -5.5 | -1.1 | 2220
CCC1Sc2ccc(S(=O)(=O)Nc3cc(OC)cc(OC)c3)cc2NC1=O (stereo not given) | -3.5 | -2.9 | 6.2 | -8.3 | -4.6 | -20.1 | 5130
CCC(=O)Nc1ccc(NC(=O)CSc2nnnn2Cc2ccccc2)cc1C | 1.8 | -12.2 | -0.4 | -10.4 | -3.3 | -3.5 | 5447
COc1ccc(Cl)cc1S(=O)(=O)N1CCN(CC(=O)C(C)(C)C)CC1 | 3.1 | 11.0 | -1.9 | / | / | -12.5 | 2635
COCCCNC(=O)C(CC(N)=O)NC(=O)OCc1ccccc1 (stereo not given) | -2.4 | 0.1 | 0.1 | -8.5 | 9.2 | / | 4065
CCOC(=O)C1=C(C)NC(C)=C(C(=O)OCC)C1C(=O)OCC(=O)NCc1ccco1 | -1.5 | / | 2.6 | 4.8 | 12.1 | 7.9 | 3642
CCN(CC)CCNC(=O)c1cn(-c2ccccc2)nc1-c1cccs1 | 30.0 | -3.6 | 2.1 | -83.7 | -7.6 | -3.3 | 8643
CCOC(=O)C1(Cc2ccc(OC)cc2)CCN(C(=O)c2cncs2)CC1 | 5.1 | -2.4 | 4.7 | 4.0 | -1.9 | -5.9 | 2327
CSc1nc(N)c2c3c(sc2n1)COC(C(C)C)C3 (stereo not given) | -1.2 | -0.3 | 5.4 | / | / | -16.4 | 3319
CCOC(=O)c1ccc2ncc(C(=O)OCC)c(NCCCN3CCOCC3)c2c1 | -7.1 | -3.2 | -4.3 | -0.6 | -8.2 | -39.3 | 5787
CCOc1ccccc1Nc1cc2n(c(=O)n1)CCc1cc(OC)c(OC)cc1-2 | / | -4.6 | / | / | / | 12.7 | 3819
COc1ccc(OCCSc2nc3ccccc3c(=O)[nH]2)cc1 | -0.4 | 9.0 | 0.6 | 14.1 | 3.6 | -21.7 | 13165
CCCN1CCN(CCCNC(=O)Cn2nc(-c3ccccc3)ccc2=O)CC1 | 1.9 | 2.4 | 2.3 | 8.5 | 7.0 | -22.7 | 10387
Cc1ccc(Cn2nnc3c(=O)n(CC(=O)NCC4CCCO4)cnc32)cc1 (stereo not given) | 0.7 | 14.5 | 1.2 | 10.7 | 4.2 | -15.2 | 8378
O=C1C=CC(=O)N1c1ccccn1 | 0.3 | / | -0.2 | 21.7 | 9.8 | -14.2 | 3798
COc1ccc(C(C)(C)C)cc1NC(=O)CCCN1C(=O)CN(C)C1=O | 2.5 | / | 1.7 | 2.5 | -4.4 | 0.5 | 4363
CC(c1ccccc1)n1cnc2ccccc2c1=O (stereo not given) | 6.7 | 20.0 | 3.3 | 2.9 | 14.9 | -20.2 | 3512
COc1ccc(C(=O)Nc2ccc(S(=O)(=O)Nc3cc(C)nc(C)n3)cc2)cc1 | -4.9 | 2.8 | 0.6 | -4.4 | 14.0 | -0.6 | 4646
CCS(=O)(=O)NCCc1csc(C)n1 | 8.7 | 2.7 | 4.8 | 7.5 | 12.8 | -1.3 | 2507
Cc1cc(NC(=O)COC(=O)c2c(C)nn(-c3ccccc3)c2C)no1 | -2.7 | -5.7 | 0.1 | -5.4 | 6.5 | -28.5 | 3932
COC(=O)c1ccc(C(=O)OC)c(NC(=O)C2CC2)c1 | 0.5 | 1.5 | 3.1 | 5.1 | 7.1 | 3.2 | 2030
CCCc1cc(C(=O)N/N=C/c2ccc(C)o2)c2ccccc2n1 | / | 13.0 | / | / | / | -12.6 | 3128

Two records drawn at random from the list so far:
SMILES | Sa ugtP lethal | BJeLR lethal | RN4220 kill | Mtb hypoxia inh | Mtb hypoxia inh growth | PrP UTR inh | Bead autofluor
COc1ccc(C(=O)Nc2ccc(S(=O)(=O)Nc3cc(C)nc(C)n3)cc2)cc1 | -4.9 | 2.8 | 0.6 | -4.4 | 14.0 | -0.6 | 4646
CCCc1cc(C(=O)N/N=C/c2ccc(C)o2)c2ccccc2n1 | / | 13.0 | / | / | / | -12.6 | 3128

(more compounds)
SMILES | Sa ugtP lethal | BJeLR lethal | RN4220 kill | Mtb hypoxia inh | Mtb hypoxia inh growth | PrP UTR inh | Bead autofluor
O=C(N/N=C1/CCCc2ccccc21)C(c1ccccc1)c1ccccc1 | / | -3.7 | / | / | / | -14.8 | 11000
O=C(NCCCN1CCOCC1)c1cc(Cl)ccc1[N+](=O)[O-] | 9.9 | -5.9 | 4.0 | -2.7 | -3.3 | -16.6 | 2451
CCC(C)NC(=O)Nc1ccccc1C (stereo not given) | 4.4 | 6.5 | 14.1 | -3.7 | 0.0 | -4.6 | /
Cc1cccc(C=NNC(=O)c2cc(-c3cccnc3)nc3ccccc23)c1 | -2.2 | / | 1.0 | 8.4 | 2.9 | / | /
CC(CNS(=O)(=O)c1ccc2c(c1)CC(=O)N2C)c1ccccc1 (stereo not given) | 7.4 | 6.6 | 0.6 | 2.8 | -17.4 | -20.5 | 6271
Cc1ccc(C(=O)NC2CCN(S(=O)(=O)c3ccccc3F)CC2)cc1 | 3.7 | -8.0 | -0.3 | -4.4 | -25.0 | -36.0 | 3054
O=c1cc2[nH]c3ccccc3c(=O)n2nc1-c1ccccc1 | 16.0 | 17.0 | 2.4 | / | / | -21.2 | 2812
N=c1c(S(=O)(=O)c2ccc(Cl)cc2)cc2c(=O)n3ccccc3nc2n1CCN1CCOCC1 | 2.8 | 7.8 | 3.2 | 3.2 | 0.5 | -36.4 | 21495*
COc1ccccc1OCCn1cc(/C=N/NC(N)=S)c2ccccc21 | / | -7.5 | / | / | / | -19.0 | 3364
Cc1ccc(CCNC(=O)CN2C(=O)COc3ccc(S(=O)(=O)N4CCOCC4)cc32)cc1 | 5.6 | 1.2 | 3.7 | 11.8 | 1.0 | -14.4 | 5396

Single entries from above:
CC(CNS(=O)(=O)c1ccc2c(c1)CC(=O)N2C)c1ccccc1 (stereo not given) in Sa ugtP lethal → 7.4
O=C(NCCCN1CCOCC1)c1cc(Cl)ccc1[N+](=O)[O-] in BJeLR lethal → -5.9
CCC(C)NC(=O)Nc1ccccc1C (stereo not given) in Mtb hypoxia inh growth → 0.0
Cc1ccc(CCNC(=O)CN2C(=O)COc3ccc(S(=O)(=O)N4CCOCC4)cc32)cc1 in RN4220 kill → 3.7
O=C(N/N=C1/CCCc2ccccc21)C(c1ccccc1)c1ccccc1 in Bead autofluor → 11000

Following part:
SMILES | Sa ugtP lethal | BJeLR lethal | RN4220 kill | Mtb hypoxia inh | Mtb hypoxia inh growth | PrP UTR inh | Bead autofluor
O=C(NN=Cc1ccoc1)c1ccccc1F | -0.8 | / | 0.3 | 12.4 | -9.3 | / | /
COc1cccc(/C=C2\SC(=S)N(CCCC(=O)N(CCO)c3ccccc3)C2=O)c1 | -20.1 | 55.1* | 2.9 | 7.8 | 2.4 | 8.0 | 6168
CCCOc1ccc(/C=N/NC(=O)C(=O)Nc2ccccn2)cc1 | / | -5.6 | / | / | / | -14.4 | 10396
COCc1cc(C=NNC(=O)c2ccc(Cl)cc2)ccc1OC | 4.6 | / | -0.8 | 7.1 | 11.1 | / | /
COc1ccc(C2=Nn3c(nnc3-c3ccccc3C(F)(F)F)SC2)cc1OC1CCOC1 (stereo not given) | -3.6 | / | -0.5 | -1.8 | 5.8 | 15.2 | 2977
Cc1ccc(NS(=O)(=O)c2ccc(NC(=O)c3ccccc3C(=O)O)cc2)cc1C | -5.5 | -2.7 | 2.8 | 0.0 | -3.1 | / | 5660
Cc1ccc(C(C)NC(=O)C2CCCO2)cc1C (stereo not given) | -3.8 | -0.2 | 0.2 | 5.6 | -0.9 | 1.2 | 8110
CC(C)Cn1c(N)c(C(=O)CSc2nnc(-c3ccco3)n2C)c(=O)n(C)c1=O | -1.0 | / | 2.7 | 4.7 | 3.3 | -13.2 | 3941
CCN(CC)c1cc2nonc2c2nonc12 | -12.5 | 1.1 | 9.9 | 5.8 | 7.4 | -27.2 | 9242
CC(OC(=O)Cc1ccccc1[N+](=O)[O-])C(=O)Nc1ccc(Cl)cn1 (stereo not given) | 10.8 | 9.1 | 3.5 | 15.8 | -3.2 | 6.3 | 5498
O=C(Nc1nc(-c2cccs2)cs1)c1ccc([N+](=O)[O-])o1 | 63.1 | / | 22.4 | 24.0 | 13.3 | -23.7 | 3762
CCSC1=N/C(=C\C=C2/Oc3ccccc3N2CC)C(=O)S1 | 1.4 | 4.8 | 2.7 | 20.1 | -7.4 | -15.7 | 3856
Cc1ccc(CN2CCSc3ccc(C(=O)N4CCC5(CC4)OCCO5)cc32)cc1 | 3.9 | 2.1 | 13.3 | 1.9 | 3.4 | -26.2 | 4475
Cn1c(N=Cc2cc(Cl)ccc2O)nc2ccccc21 | -3.9 | / | 10.1 | 13.5 | 5.0 | / | /
O=C(O)c1cccc(NS(=O)(=O)c2ccc(Cl)c(C(=O)Nc3cccc([N+](=O)[O-])c3)c2)c1 | -1.7 | 1.3 | 4.0 | 1.3 | 9.5 | -13.7 | /
CCOC(=O)/C(=N\Nc1ccc(Cl)cc1)Sc1nnc(-c2ccc(OC)cc2)n1C | / | -3.2 | / | / | / | -24.2 | 2480
Clc1ccccc1OCCCCN1CCCCC1 | 11.0 | -0.6 | 8.4 | -8.3 | -1.5 | -12.5 | 3645
CC(=C1C(=O)c2ccccc2C1=O)N1CCN(Cc2ccccc2)CC1 | 2.2 | 2.1 | 10.0 | 9.4 | 2.9 | -24.7 | 10231
Cc1nc(NNC(=O)c2ccc(Cl)cc2Cl)cc(-c2ccccc2)n1 | -15.8 | -0.4 | 8.9 | 4.8 | -1.8 | -4.2 | 3141
COc1ccc(N2CCN(C(=O)C3CCN(C(=O)c4cccc(Cl)c4)CC3)CC2)cc1 | -0.6 | -7.0 | 4.7 | -13.5 | 9.1 | -6.2 | 3925
O=C(N/N=C/C=C/c1ccccc1[N+](=O)[O-])c1cccnc1 | / | -2.1 | / | / | / | -2.7 | 2559
CNC(=O)c1[nH]cnc1C(=O)N[C@@H](CCCCNC(=O)OC(C)(C)C)C(=O)OC(C)(C)C | / | 7.0 | / | / | / | -4.7 | 4240
COc1ccc(-n2nc(C(=O)N3CCC(N4CCCCC4)CC3)c3c4ccccc4n(C)c3c2=O)cc1 | 1.9 | 12.3 | 0.0 | -3.1 | -8.4 | -0.1 | 7052
COc1ccccc1Cn1c(SCC(=O)C(C)(C)C)nc2cc(C(=O)N3CCC4(CC3)OCCO4)ccc2c1=O | 3.2 | 4.2 | 8.1 | -2.1 | -0.3 | / | /
Cc1ccc(S(=O)(=O)NN2C(=O)/C(=C/c3ccc(F)cc3)SC2=S)cc1 | 88.9* | -1.6 | 84.9* | 11.3 | 2.3 | -24.1 | 3619
CC(CN1C(C)CCCC1C)OC(=O)c1ccc(Cl)cc1 (stereo not given) | 1.8 | -3.1 | 1.7 | 7.0 | 2.5 | 1.9 | 3513
NC(=O)C1CCN(CC(=O)N2N=CCC2c2ccccc2)CC1 (stereo not given) | 8.6 | -2.5 | 3.0 | -1.0 | 4.6 | -22.7 | 2078
O=C(c1cccc([N+](=O)[O-])c1)N1CCCN(C(=O)c2cccc([N+](=O)[O-])c2)CC1 | 14.6 | 5.3 | 3.6 | 13.4 | 12.2 | -16.2 | 9124
COc1ccccc1-n1c(/C=C/c2ccccn2)nc2ccccc2c1=O | 6.8 | 0.9 | 1.6 | 9.2 | 1.8 | -10.8 | 3180
